rRNA inh HTS: reduced GFP signal of wild-type E. coli, primary screen, bacterial rRNA inhibitor project, GFP/RFP fluorescence, OD600, single point | E. coli WT GFP vs humanized-ribosome RFP mutants, 24 h; stronger effect = lower value; DMSO median 0, no signal -100 | GFP signal change (wild-type ribosome), % (no concentration beside the values) | 350,000 tested, 1.6% active;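 active means significant combined selectivity score with lowered wild-type GFP, culture density cut under 30%, mutant RFP and density less affected; inactive means any of these conditions unmet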; further: one replicate is shown; some compounds called inactive have numbers as strong as hits
FGF22 binding: binders of human FGF22 protein, primary screen, FGF22 synaptogenesis inhibitor project, biophysical, thermal shift, single point; recombinant FGF22 thermal shift, SYPRO orange fluorescence; percent of sucrose octasulfate shift, DMSO zero; AID 651658, 2012; Fibroblast growth factor 22 (Homo sapiens), Q9HCT0; calls only at 9.99 µM; 340,000 tested, 1.5% active;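 active means melting point raised past a set limit in the mean and every replicate; three in four hits are not shown here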
Target sequence (Q9HCT0 whole entry, looked up): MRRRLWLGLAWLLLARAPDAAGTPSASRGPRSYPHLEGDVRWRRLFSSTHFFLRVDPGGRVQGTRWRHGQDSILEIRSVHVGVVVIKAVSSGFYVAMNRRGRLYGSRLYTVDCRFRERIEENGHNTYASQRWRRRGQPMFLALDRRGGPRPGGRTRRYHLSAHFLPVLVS
MLL AF4-AF9 inh: inhibitors of AF4 peptide binding to AF9, primary screen, biochemical, AlphaScreen, biotin-AF4 peptide, FLAG-AF9, single point; Protein AF-9 (Homo sapiens), P42568; inhibition, % at 10 µM; 350,000 tested, 0.47% active; AID 651704, 2012;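 active means every replicate reaching a set inhibition limit, whatever the replicate mean, cut at about 25% in these data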;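 further: 0% = plate neutral control median and 100% = total signal loss; the record names both 10 and 1 µM as test concentration; the first replicate is given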
Target sequence (P42568 whole entry, looked up): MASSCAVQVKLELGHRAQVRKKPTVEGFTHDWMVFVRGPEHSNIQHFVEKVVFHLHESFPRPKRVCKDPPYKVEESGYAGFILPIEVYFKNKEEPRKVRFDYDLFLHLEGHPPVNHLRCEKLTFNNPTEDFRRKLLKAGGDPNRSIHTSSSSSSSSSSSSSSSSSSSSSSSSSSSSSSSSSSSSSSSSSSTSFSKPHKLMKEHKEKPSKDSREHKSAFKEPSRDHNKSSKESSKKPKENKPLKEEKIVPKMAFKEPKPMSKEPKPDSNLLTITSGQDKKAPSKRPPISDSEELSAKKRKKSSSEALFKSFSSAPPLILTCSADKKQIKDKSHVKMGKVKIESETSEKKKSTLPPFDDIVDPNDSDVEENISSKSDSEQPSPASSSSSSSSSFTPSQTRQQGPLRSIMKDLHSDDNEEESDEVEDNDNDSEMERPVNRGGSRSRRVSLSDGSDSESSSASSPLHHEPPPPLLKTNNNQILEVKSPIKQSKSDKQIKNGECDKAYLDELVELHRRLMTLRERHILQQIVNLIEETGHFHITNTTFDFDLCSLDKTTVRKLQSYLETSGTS
rRNA inh HTS OD600: second read-out of rRNA inh HTS, no call of its own (marks repeat the call); OD600 change, %; measured here: OD600 growth;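 optical density of the mix in the first replicate; 0 = DMSO median and -100 = no signal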
rRNA inh HTS RFP: second read-out of rRNA inh HTS, no call of its own (marks repeat the call); RFP signal change, %; measured here: RFP humanized mutant strains;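 first replicate; 0 = DMSO median and -100 = no signal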
* marks the source's active call; other numbers are inactive results.

What do the screens show for `C[C@H]1CN([C@@H](C)CO)C(=O)c2cc(NS(=O)(=O)c3ccc(Cl)cc3)ccc2O[C@@H]1CN(C)C(=O)NC1CCCCC1`?
rRNA inh HTS: -2.9; FGF22 binding: inactive; MLL AF4-AF9 inh: -1.6; rRNA inh HTS OD600: -11.8; rRNA inh HTS RFP: -2.0

Results for C[C@H]1CN([C@@H](C)CO)S(=O)(=O)c2ccc(C#CC(C)(C)O)cc2O[C@@H]1CN(C)C(=O)C1CCC1 ?
rRNA inh HTS: -2.7; FGF22 binding: inactive; MLL AF4-AF9 inh: -4.7; rRNA inh HTS OD600: -5.5; rRNA inh HTS RFP: -0.7

How did CC(=O)N1CC2(C1)[C@@H](c1ccccc1)[C@H](CO)N2C(=O)c1ccncc1 do in these assays?
rRNA inh HTS: 0.6; FGF22 binding: inactive; MLL AF4-AF9 inh: 0.6; rRNA inh HTS OD600: 2.1; rRNA inh HTS RFP: -2.1

How did CC(C)NC(=O)N(C)C[C@@H]1Oc2cc(Br)ccc2S(=O)(=O)N([C@H](C)CO)C[C@H]1C do in these assays?
rRNA inh HTS: -3.8; FGF22 binding: inactive; MLL AF4-AF9 inh: -2.3; rRNA inh HTS OD600: 2.8; rRNA inh HTS RFP: 0.1

What do the screens show for `C[C@H]1CN([C@@H](C)CO)C(=O)c2cccc(NC(=O)Nc3ccccc3)c2O[C@H]1CN(C)Cc1ccncc1`?
rRNA inh HTS: -1.2; FGF22 binding: inactive; MLL AF4-AF9 inh: -1.1; rRNA inh HTS OD600: -6.6; rRNA inh HTS RFP: -2.7

What do the screens show for `COc1ccc(NC(=O)Nc2ccc3c(c2)[C@@H]2C[C@@H](CC(=O)N4CCc5ccccc5C4)O[C@@H](CO)[C@@H]2O3)cc1`?
rRNA inh HTS: -4.9; FGF22 binding: inactive; MLL AF4-AF9 inh: 5.9; rRNA inh HTS OD600: -5.1; rRNA inh HTS RFP: 6.1

How did CCCNC(=O)C1(C)CCCN(C(=O)Cc2ccc(OC)cc2)C1 (centres undefined) do in these assays?
rRNA inh HTS: -1.5; FGF22 binding: inactive; MLL AF4-AF9 inh: -4.7; rRNA inh HTS OD600: -0.7; rRNA inh HTS RFP: -5.2

What do the screens show for `C[C@@H]1CN([C@H](C)CO)C(=O)Cc2cc(NC(=O)Nc3cccc4ccccc34)ccc2O[C@H]1CN(C)S(=O)(=O)c1ccc(Cl)cc1`?
rRNA inh HTS: 1.7; FGF22 binding: inactive; MLL AF4-AF9 inh: -0.3; rRNA inh HTS OD600: 6.5; rRNA inh HTS RFP: 1.5

What do the screens show for `CCC(=O)N(C)C[C@H]1Oc2cc(-c3ccncc3)ccc2S(=O)(=O)N([C@H](C)CO)C[C@H]1C`?
rRNA inh HTS: -3.1; FGF22 binding: inactive; MLL AF4-AF9 inh: -1.4; rRNA inh HTS OD600: -1.5; rRNA inh HTS RFP: -2.8

How did CCCNC(=O)[C@@H]1[C@@H](CO)[C@@H]2Cn3c(ccc(C4=CCCCC4)c3=O)[C@@H]2N1C(=O)c1cnccn1 do in these assays?
rRNA inh HTS: -0.5; FGF22 binding: inactive; MLL AF4-AF9 inh: -3.7; rRNA inh HTS OD600: 3.4; rRNA inh HTS RFP: -2.6

What do the screens show for `COc1ccc(S(=O)(=O)N[C@@H]2CC[C@@H](CCn3cc(-c4ccccc4F)nn3)O[C@@H]2CO)cc1`?
rRNA inh HTS: -0.9; FGF22 binding: inactive; MLL AF4-AF9 inh: -1.0; rRNA inh HTS OD600: -7.1; rRNA inh HTS RFP: 0.9

What do the screens show for `C[C@H]1CN([C@@H](C)CO)C(=O)c2cc(C#Cc3ccc(F)cc3)cnc2O[C@H]1CN(C)Cc1ccccn1`?
rRNA inh HTS: -2.5; FGF22 binding: inactive; MLL AF4-AF9 inh: -1.0; rRNA inh HTS OD600: -1.3; rRNA inh HTS RFP: 6.7

What do the screens show for `COc1ccc(NC(=O)N(C)C[C@H]2Oc3ccc(NC(=O)CCC(F)(F)F)cc3C(=O)N([C@H](C)CO)C[C@H]2C)cc1`?
rRNA inh HTS: 1.1; FGF22 binding: inactive; MLL AF4-AF9 inh: -10.8; rRNA inh HTS OD600: 2.3; rRNA inh HTS RFP: -0.9

Results for C[C@@H]1CN([C@H](C)CO)C(=O)c2cc(NC(=O)CCC(F)(F)F)ccc2O[C@@H](C)CCCCO[C@@H]1CN(C)Cc1ccc(C(F)(F)F)cc1 ?
rRNA inh HTS: 4.9; FGF22 binding: inactive; MLL AF4-AF9 inh: 1.1; rRNA inh HTS OD600: -3.8; rRNA inh HTS RFP: 3.6

What do the screens show for `Cc1ccc(S(=O)(=O)N(C)C[C@@H]2Oc3ccc(NC(=O)CCC(F)(F)F)cc3CC(=O)N([C@H](C)CO)C[C@@H]2C)cc1`?
rRNA inh HTS: -3.2; FGF22 binding: inactive; MLL AF4-AF9 inh: -0.7; rRNA inh HTS OD600: 0.7; rRNA inh HTS RFP: 1.1

How did COc1ccc(NC(=O)N2CCCCN3[C@H](C2)[C@H](c2ccc(C#CCC(C)C)cc2)[C@@H]3CO)cc1 do in these assays?
rRNA inh HTS: 0.1; FGF22 binding: inactive; MLL AF4-AF9 inh: -3.5; rRNA inh HTS OD600: -12.5; rRNA inh HTS RFP: 16.1

Results for CO[C@@H]1CN(C)C(=O)c2ccc(NC(=O)c3ccc(Oc4ccccc4)cc3)cc2OC[C@H](C)NC[C@@H]1C ?
rRNA inh HTS: -2.4; FGF22 binding: inactive; MLL AF4-AF9 inh: 10.3; rRNA inh HTS OD600: -0.9; rRNA inh HTS RFP: 10.4

What do the screens show for `C[C@@H]1CN([C@@H](C)CO)C(=O)c2cc(-c3cncnc3)cnc2O[C@H]1CN(C)Cc1ccc(F)cc1`?
rRNA inh HTS: 5.9; FGF22 binding: inactive; MLL AF4-AF9 inh: -2.4; rRNA inh HTS OD600: 5.1; rRNA inh HTS RFP: -4.4

How did C[C@@H]1CCCCO[C@@H](CN(C)Cc2ccccc2)[C@H](C)CN([C@H](C)CO)C(=O)c2cc(NC(=O)C3CCCCC3)ccc2O1 do in these assays?
rRNA inh HTS: 4.8; FGF22 binding: inactive; MLL AF4-AF9 inh: 7.4; rRNA inh HTS OD600: -3.2; rRNA inh HTS RFP: -0.7

What do the screens show for `N#C[C@H]1[C@@H](c2ccc(C3=CCCC3)cc2)[C@@H](CO)N1C(=O)C1CCCC1`?
rRNA inh HTS: 2.3; FGF22 binding: inactive; MLL AF4-AF9 inh: -2.4; rRNA inh HTS OD600: -0.3; rRNA inh HTS RFP: 0.4

What do the screens show for `COc1ccc(C(=O)Nc2ccc3c(c2)C(=O)N(C)C[C@@H](OC)[C@H](C)CN[C@H](C)CO3)cc1`?
rRNA inh HTS: 4.8; FGF22 binding: inactive; MLL AF4-AF9 inh: -0.7; rRNA inh HTS OD600: 11.4; rRNA inh HTS RFP: -4.4

How did C[C@@H]1CN([C@H](C)CO)C(=O)Cc2cc(NS(=O)(=O)c3ccc(Cl)cc3)ccc2O[C@H]1CN(C)C(=O)Nc1ccccc1 do in these assays?
rRNA inh HTS: 1.8; FGF22 binding: inactive; MLL AF4-AF9 inh: -2.2; rRNA inh HTS OD600: 5.5; rRNA inh HTS RFP: -2.1

How did COc1ccc(S(=O)(=O)N(C)C[C@H]2Oc3c(NC(=O)C4CCCCC4)cccc3C(=O)N([C@@H](C)CO)C[C@@H]2C)cc1 do in these assays?
rRNA inh HTS: 3.6; FGF22 binding: inactive; MLL AF4-AF9 inh: -1.6; rRNA inh HTS OD600: 17.1; rRNA inh HTS RFP: 1.1

Results for COc1cccc(CNC(=O)C[C@@H]2C=C[C@@H](NC(=O)C3CCOCC3)[C@H](CO)O2)c1 ?
rRNA inh HTS: 0.5; FGF22 binding: inactive; MLL AF4-AF9 inh: -1.7; rRNA inh HTS OD600: 3.3; rRNA inh HTS RFP: -0.1

Molecules listed so far containing a CF3 group (3):
What do the screens show for `COc1ccc(NC(=O)N(C)C[C@H]2Oc3ccc(NC(=O)CCC(F)(F)F)cc3C(=O)N([C@H](C)CO)C[C@H]2C)cc1`?
rRNA inh HTS: 1.1; FGF22 binding: inactive; MLL AF4-AF9 inh: -10.8; rRNA inh HTS OD600: 2.3; rRNA inh HTS RFP: -0.9

Results for C[C@@H]1CN([C@H](C)CO)C(=O)c2cc(NC(=O)CCC(F)(F)F)ccc2O[C@@H](C)CCCCO[C@@H]1CN(C)Cc1ccc(C(F)(F)F)cc1 ?
rRNA inh HTS: 4.9; FGF22 binding: inactive; MLL AF4-AF9 inh: 1.1; rRNA inh HTS OD600: -3.8; rRNA inh HTS RFP: 3.6

What do the screens show for `Cc1ccc(S(=O)(=O)N(C)C[C@@H]2Oc3ccc(NC(=O)CCC(F)(F)F)cc3CC(=O)N([C@H](C)CO)C[C@@H]2C)cc1`?
rRNA inh HTS: -3.2; FGF22 binding: inactive; MLL AF4-AF9 inh: -0.7; rRNA inh HTS OD600: 0.7; rRNA inh HTS RFP: 1.1

Additional records follow.
How did COc1ccc(Cl)c(CNC[C@H]2O[C@@H](n3cnc(C(N)=O)n3)[C@H](O)[C@@H]2O)c1 do in these assays?
rRNA inh HTS: 34.6; FGF22 binding: inactive; MLL AF4-AF9 inh: -5.7; rRNA inh HTS OD600: 16.9; rRNA inh HTS RFP: 2.0

What do the screens show for `COc1ccc(S(=O)(=O)N(C)C[C@@H]2Oc3cc(C4=CCCC4)ccc3S(=O)(=O)N([C@H](C)CO)C[C@H]2C)cc1`?
rRNA inh HTS: -1.6; FGF22 binding: inactive; MLL AF4-AF9 inh: 1.0; rRNA inh HTS OD600: 0.2; rRNA inh HTS RFP: 0.1

What do the screens show for `COCC(=O)Nc1ccc2c(c1)[C@@H]1C[C@@H](CC(=O)NCc3ccc(-c4ccccc4)cc3)O[C@@H](CO)[C@@H]1O2`?
rRNA inh HTS: -6.9; FGF22 binding: inactive; MLL AF4-AF9 inh: -0.1; rRNA inh HTS OD600: -21.7; rRNA inh HTS RFP: 9.8

What do the screens show for `CN(C)C(=O)c1ccc(-c2ccccc2[C@@H]2[C@@H](C#N)N(C(=O)C3CCC3)[C@H]2CO)cc1`?
rRNA inh HTS: 2.8; FGF22 binding: inactive; MLL AF4-AF9 inh: 1.4; rRNA inh HTS OD600: -5.6; rRNA inh HTS RFP: -1.5

How did C[C@H]1CN([C@@H](C)CO)C(=O)c2c(c3ccccc3n2C)-c2ccccc2CO[C@H]1CN(C)C(=O)C1CC1 do in these assays?
rRNA inh HTS: -2.2; FGF22 binding: inactive; MLL AF4-AF9 inh: -2.5; rRNA inh HTS OD600: 9.9; rRNA inh HTS RFP: -4.4

What do the screens show for `O=C(NCCc1ccccc1)Nc1nnc([C@H]2C[C@H](O)[C@@H](CO)O2)s1`?
rRNA inh HTS: 5.5; FGF22 binding: inactive; MLL AF4-AF9 inh: -1.9; rRNA inh HTS OD600: 12.5; rRNA inh HTS RFP: 0.0

Results for C[C@@H]1CCCCO[C@@H](CN(C)C(=O)c2ccccc2)[C@H](C)CN([C@H](C)CO)C(=O)c2cc(NC(=O)CCC(F)(F)F)ccc2O1 ?
rRNA inh HTS: 0.6; FGF22 binding: inactive; MLL AF4-AF9 inh: -3.0; rRNA inh HTS OD600: 1.2; rRNA inh HTS RFP: 1.0

What do the screens show for `COc1ccc(C(=O)N2C[C@@H]3[C@H](c4ccccc42)[C@H](CO)N3C(=O)NC(C)C)cc1`?
rRNA inh HTS: 3.9; FGF22 binding: inactive; MLL AF4-AF9 inh: -2.3; rRNA inh HTS OD600: 2.3; rRNA inh HTS RFP: -0.6

How did Cc1ccc(S(=O)(=O)Nc2ccc3c(c2)C(=O)N([C@H](C)CO)C[C@@H](C)[C@@H](CN(C)Cc2ccncc2)OCCCC[C@@H](C)O3)cc1 do in these assays?
rRNA inh HTS: -1.2; FGF22 binding: inactive; MLL AF4-AF9 inh: 3.5; rRNA inh HTS OD600: -7.9; rRNA inh HTS RFP: 0.3

How did CC(C)NC(=O)Nc1ccc2c(c1)C(=O)N([C@@H](C)CO)C[C@@H](C)[C@@H](CN(C)Cc1ccccc1)O2 do in these assays?
rRNA inh HTS: 2.1; FGF22 binding: inactive; MLL AF4-AF9 inh: -1.4; rRNA inh HTS OD600: 5.5; rRNA inh HTS RFP: -2.5

How did Cc1cccc(C)c1NC(=O)Nc1nnc([C@@H]2C[C@H](O)[C@@H](CO)O2)s1 do in these assays?
rRNA inh HTS: 7.8; FGF22 binding: inactive; MLL AF4-AF9 inh: -0.3; rRNA inh HTS OD600: 8.1; rRNA inh HTS RFP: -0.4

Results for C[C@H](CO)N1C[C@H](C)[C@@H](CN(C)S(=O)(=O)c2cccs2)OCCCC[C@H](C)Oc2ccc(NC(=O)C3CCCCC3)cc2C1=O ?
rRNA inh HTS: -2.0; FGF22 binding: inactive; MLL AF4-AF9 inh: -2.1; rRNA inh HTS OD600: -11.9; rRNA inh HTS RFP: -0.1

What do the screens show for `C[C@@H]1CN([C@@H](C)CO)S(=O)(=O)c2ccc(C#C[C@@H](C)O)cc2O[C@H]1CN(C)Cc1ccc(-c2ccccc2)cc1`?
rRNA inh HTS: -2.9; FGF22 binding: inactive; MLL AF4-AF9 inh: 1.3; rRNA inh HTS OD600: -10.3; rRNA inh HTS RFP: 8.6

The list is partial. The share of hits here may be higher or lower than overall.
